Assay outcomes deposited in PubChem BioAssay by Vanderbilt University.
GIRK2 activ: activators of human GIRK2 potassium channels; G protein-activated inward rectifier potassium channel 2 (Homo sapiens), P48051; HEK293-GIRK2 thallium flux, Thallos fluorescence; calls only for hits at 25 µM; 63,000 compounds, 0.05% hits; AID 1259325, 2017;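 active = among the strongest 0.2% of first-round signals and kept after retests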;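 also: first round at about 10 µM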
Target sequence (P48051 whole entry, looked up): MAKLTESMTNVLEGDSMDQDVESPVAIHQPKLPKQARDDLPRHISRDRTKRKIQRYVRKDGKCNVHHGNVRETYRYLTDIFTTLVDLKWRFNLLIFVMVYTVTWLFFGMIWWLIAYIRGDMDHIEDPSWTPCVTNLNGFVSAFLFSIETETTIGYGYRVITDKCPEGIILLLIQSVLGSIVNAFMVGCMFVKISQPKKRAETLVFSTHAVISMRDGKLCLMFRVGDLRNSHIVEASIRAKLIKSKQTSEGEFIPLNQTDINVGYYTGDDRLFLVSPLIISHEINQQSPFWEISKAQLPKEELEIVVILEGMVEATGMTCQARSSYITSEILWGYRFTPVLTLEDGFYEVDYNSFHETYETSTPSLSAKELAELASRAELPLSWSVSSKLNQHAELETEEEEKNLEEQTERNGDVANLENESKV
Calls only; i = inactive. Some of the compounds tested (hit frequency here may not be typical).

Sample of the layout (six entries):
Molecule	GIRK2 activ
COCCn1c(C(=O)NCCC(C)C)cc2c(=O)n(C)c(=O)n(C)c21	i
COc1ccc(/C=C2\Oc3cc(OS(=O)(=O)c4ccc(C)cc4)ccc3C2=O)c(OC)c1OC	i
Cn1cnnc1SCCNC(=O)CNC(=O)c1ccc(=O)[nH]c1	i
CC1=NN(C)c2nc3c(c(=O)n(CCC(C)C)c(=O)n3C)n2C1	i
Cc1c(C(=O)CN2C(=O)c3ccccc3OC(C(C)C)C2=O)cnn1-c1ccccc1 (stereo not given)	i
COc1ccc(-n2nnc(C(=O)N3CCN(c4cc(Cl)ccc4C)CC3)n2)cc1	i

The list itself, from the first entry:
Molecule	GIRK2 activ
COCCn1c(C(=O)NCCC(C)C)cc2c(=O)n(C)c(=O)n(C)c21	i
COc1ccc(/C=C2\Oc3cc(OS(=O)(=O)c4ccc(C)cc4)ccc3C2=O)c(OC)c1OC	i
Cn1cnnc1SCCNC(=O)CNC(=O)c1ccc(=O)[nH]c1	i
CC1=NN(C)c2nc3c(c(=O)n(CCC(C)C)c(=O)n3C)n2C1	i
Cc1c(C(=O)CN2C(=O)c3ccccc3OC(C(C)C)C2=O)cnn1-c1ccccc1 (stereo not given)	i
COc1ccc(-n2nnc(C(=O)N3CCN(c4cc(Cl)ccc4C)CC3)n2)cc1	i
CCCc1nnsc1C(=O)NCC1(O)CCOc2ccccc21 (stereo not given)	i
Cc1cc(C(F)(F)F)nc(CCNS(=O)(=O)c2ccc(Cl)s2)n1	i
COc1ccc(-c2nc(-c3cn(Cc4ccccc4)nn3)no2)cc1OC	i
COc1ccc(-c2nc(S(=O)(=O)c3ccccc3)c(S(C)(=O)=O)o2)cc1	i
CC(Cn1cncn1)C(=O)N1CCN(S(=O)(=O)c2ccc(Cl)cc2)CC1 (stereo not given)	i
COc1cc(=O)c(C(=O)NCc2ccc(F)cc2)nn1-c1ccc(C)cc1	i
O=C(O)c1ccc(CNS(=O)(=O)c2cccc(C(F)(F)F)c2)cc1	i
CCCCOc1ccc(NC(=O)N2CCC(c3nnc(C(F)(F)F)o3)CC2)cc1	i
O=C(c1cccc2ccccc12)N1CCC2(CC1)OCCCO2	i
Cc1cc2nn(CC(=O)Nc3ccc4c(c3)OCCO4)c(=O)n2c(Nc2ccccc2C)n1	i
O=S(=O)(NCCC(O)c1ccoc1)c1ccc(Br)s1 (stereo not given)	i
COc1nn(C)cc1C(=O)N1CC(Oc2nc3c(C)cccc3s2)C1	i
COc1ccc(C(=O)Cn2c(N(C)C)nc3c2c(=O)n(C)c(=O)n3C)cc1	i
O=S(=O)(Cc1ccc(Cl)cc1)c1ccc(NCCCN2CCOCC2)nn1	i
N#C/C(C(N)=O)=C1/SC(Cc2ccc(Cl)c(Cl)c2)C(=O)N1c1ccccc1 (stereo not given)	i
COC(=O)c1scc(-c2ccc(C)cc2)c1S(=O)(=O)N1c2ccccc2CC1C (stereo not given)	i
COc1ccccc1NC(=O)c1c[nH]c2c(C(F)(F)F)cccc2c1=O	i
COc1cccc2cc(C(=O)N3CCN(Cc4nc5ccccc5[nH]4)CC3)oc12	i
O=C(O)CCC/C=C\C[C@@H]1[C@@H](/C=C/[C@H](O)C2Cc3ccccc3C2)[C@@H](F)C[C@@H]1O	i
COc1ccc(CCNc2nccn(-c3ccc(C)c(F)c3)c2=O)cc1OC	i
CN(C)CC1COCCN1C(=O)c1ccc2c(c1)OCO2 (stereo not given)	i
CCn1cccc(-c2nnc(SCC(=O)Nc3nccs3)n2C)c1=O	i
N#Cc1cccc(NC(=O)Cn2nc3c4cc(-c5ccc(Cl)cc5)nn4ccn3c2=O)c1	i
COCCn1c(C2CC(=O)N(c3ccccc3OC)C2)nc2ccccc21 (stereo not given)	i

Two of these compounds, set out differently:
O=C(O)CCC/C=C\C[C@@H]1[C@@H](/C=C/[C@H](O)C2Cc3ccccc3C2)[C@@H](F)C[C@@H]1O
  GIRK2 activ = i
COc1ccc(CCNc2nccn(-c3ccc(C)c(F)c3)c2=O)cc1OC
  GIRK2 activ = i

(next part)
Molecule	GIRK2 activ
Cc1nc(C(=O)NC2CC(=O)N(C3CC3)C2)cs1 (stereo not given)	i
O=C(NCCC(O)C1CC1)Nc1cccc(C(F)(F)F)c1 (stereo not given)	i
Cn1cnc2cc(OS(=O)(=O)c3cccs3)ccc21	i
CN1CCOc2ccc(NC(=O)c3ccc(-n4cccc4)cc3)cc2C1=O	i
O=C(CCCCCn1c(=S)[nH]c2cc3c(cc2c1=O)OCO3)N1CC=C(c2ccccc2)CC1	i
CN(C)CCNC(=O)Nc1ccc(N(C)c2ccnc(Nc3ccc(CS(C)(=O)=O)cc3)n2)cc1	i
COc1ccc(NC(=O)Cn2nc3c(Sc4ccccc4)nccn3c2=O)c(OC)c1	i
CCc1nc2sc(C(c3ccccc3F)N3CC(C)OC(C)C3)c(O)n2n1 (stereo not given)	i
COc1ccc2c(=O)c3c(oc2c1)C(=O)N(CCN1CCOCC1)C3c1ccccc1 (stereo not given)	i
Cc1nc(N2CCN(C(=O)Nc3ccc4c(c3)OCCO4)CC2)cc(-n2ccnc2)n1	i
COc1ccc(F)cc1S(=O)(=O)NCC1CCN(C(=O)c2ccoc2)CC1	i
COC(=O)Cn1c(=O)c2c(nc3n(-c4cc(C)cc(C)c4)c(-c4ccccc4)cn23)n(C)c1=O	i
O=C(NCCc1nc(C2CC2)cc(C(F)(F)F)n1)c1cc(Br)ccc1Cl	i
NC(=O)c1sc(-n2cnc3ccc(C(F)(F)F)cc32)cc1OCc1ccccc1Br	i
CC(=O)OCC(=O)[C@@]1(O)CC[C@H]2[C@@H]3CCC4=CC(=O)CC[C@]4(C)[C@H]3C(=O)C[C@@]21C	i
Cc1cccc(OCc2ccc(-c3nc(C#N)c(NCCCN(C)C)o3)o2)c1	i
COc1ccccc1/C=C1\Oc2cc(OCC#N)ccc2C1=O	i
COC(=O)c1ccc(NC(=O)CSc2nc3cc(-c4ccccc4)sc3c(=O)n2C)cc1	i
COc1ccccc1C(=O)Cn1cccc(-c2nc(-c3ccccc3Cl)no2)c1=O	i
CN(C(=O)N1CCN(c2ccccn2)CC1)c1ccccc1	i
O=C(Cn1nc(-c2cccs2)c2sc(N3CCCC3)nc2c1=O)NCc1ccco1	i
Cc1nc(-c2cccs2)sc1CNC(=O)c1cc2ccccc2oc1=O	i
Cc1cc(NC(=O)C2CC2)n(-c2nc(-c3ccc(F)cc3)cs2)n1	i
O=C(NC(C(=O)N1CCCCC1)C12CC3CC(CC(C3)C1)C2)c1ccc(F)cc1 (stereo not given)	i
COc1ccc(-c2nc(CN(c3ccc(OC)cc3)S(=O)(=O)c3cccs3)c(C)o2)cc1	i
Cc1c(C(=O)c2ccccc2)oc2cc(NC(=O)c3ccc(Cl)nc3)ccc12	i
NC(=O)c1ccccc1OCC#CCNC(=O)CSc1ccc(F)cc1	i
Cc1ccc(CNC(=O)Cn2cnc3c(sc4cccc(F)c43)c2=O)cc1	i
CCOc1ccccc1Oc1c(C)oc2cc(OC(=O)N(CC)CC)ccc2c1=O	i
CC1CCC(NC(=O)CCCCCn2c(=S)[nH]c3ccc(Br)cc3c2=O)CC1 (stereo not given)	i
O=C(Nc1ccc2cn[nH]c2c1)C1c2ccccc2Oc2ccccc21	i
O=C(/C=C/c1ccco1)NCCn1nc(-n2ccnc2)ccc1=O	i
Cc1nc(-c2ccccc2F)sc1CNC(=O)CCn1cnc2ccccc2c1=O	i
COc1ccccc1NC(=O)/C=C\c1cccc2ccccc12	i
O=C(NCC(O)c1ccc2c(c1)CCO2)c1ccccc1Cl (stereo not given)	i
Cc1csc(SCC2CCN(C(=O)C(C)Oc3ccccc3)CC2)n1 (stereo not given)	i
COc1ccc(S(=O)(=O)NCC2CCS(=O)(=O)C2)cc1OC (stereo not given)	i
COc1ccc(OC)c(-c2c(C)c3cc(OC)ccc3oc2=O)c1	i
CC(=O)Oc1ccccc1C(=O)Nc1ncc([N+](=O)[O-])s1	i
Cc1cn2c(CCC(=O)NCCc3cccs3)csc2n1	i
CN1CCN(CCOc2ccc3c(=O)c(-c4ccc(Br)cc4)coc3c2)CC1	i
Nc1c(C(=O)c2cccc(CCCN3CCOCC3)c2)cnn1-c1ccc(F)cc1	i
COc1ccc(Cl)cc1C(=O)N1CCN(C(=O)C2CC2c2ccccc2)CC1 (stereo not given)	i
Cc1cc(C)c(S(=O)(=O)NCc2ccccc2)cc1N(C)S(C)(=O)=O	i
COc1ccc(-c2noc(Cn3c(=O)n(CCc4ccccc4)c(=O)c4ccccc43)n2)c(OC)c1	i
COc1ccc(NC(=O)Nc2ccc(Nc3ccc(-n4nc(C)cc4C)nn3)cc2)cc1	i
COCCCn1c(C(=O)NCCOC)cc2c(=O)n3cccc(C)c3nc21	i
Cc1cc(CCNC(=O)c2cccc(-n3cnnn3)c2)on1	i
O=S(=O)(c1ccc2c(c1)OCCO2)N1CCC(CSc2ccccn2)CC1	i
Cc1cc(C(=O)NCCC(O)C2CC2)no1 (stereo not given)	i
Cc1sc(NC(=O)c2ccc(F)cc2)c(CN2CCN(C(=O)c3ccco3)CC2)c1C	i
O=C(NCc1cccs1)Nc1ccc(CC(=O)N2CCOCC2)cc1	i
O=C(/C=C/c1cccs1)NCCc1csc(-n2cccn2)n1	i
O=C(/C=C/c1ccccc1)NCC1(c2cccs2)CC1	i
COc1ccc(/C=C/C(=O)Nc2ccc3oc(=O)ccc3c2)cc1	i
CCc1cnc(NC(=O)CSc2nnnn2-c2ccccc2CC)s1	i
COc1ccccc1-c1nc(-c2nnn(-c3ccccc3)c2-c2ccncc2)no1	i
COc1ccc(Oc2coc3cc(OCC(=O)c4ccc(OC)cc4)ccc3c2=O)cc1	i
COc1ccc(NC(=O)c2nnn(Cc3nc(-c4ccc(OC(C)C)cc4)oc3C)c2N)cc1OC	i
Cc1nccn1-c1ccc(C(=O)Nc2ccc(C(F)(F)F)cc2)nn1	i

Continued.
Molecule	GIRK2 activ
COc1ccc(OC)c(S(=O)(=O)NCCCn2nc(-c3ccc(F)cc3)ccc2=O)c1	i
Cc1ccc(NCCNS(=O)(=O)c2cc(C)c(C)cc2C)nn1	i
CCOc1ccccc1NC(=O)c1cn(C)nc1C	i
COc1ccc(CNC(=O)Nc2ccccc2-c2ccc(=O)[nH]n2)cc1OC	i
O=C(/C=C/c1ccco1)N1CCN(c2cc(-n3cccc3)ncn2)CC1	i
CCCCc1ccc(NC(=O)c2ccc(=O)n(Cc3cccc([N+](=O)[O-])c3)c2)cc1	i
COC(=O)c1sccc1NC(=O)c1cc2ccccc2oc1=O	i
Cc1cc2oc3c(c(=O)c2cc1C)C(c1cccc(OC(C)C)c1)N(c1nccs1)C3=O (stereo not given)	i
CCn1c(-n2nc(C)c(C)c2C)nc2c1c(=O)n(Cc1ccc(OC)cc1)c(=O)n2C	i
COCCOCC1CCN(C(=O)Nc2ccccc2)CC1	i
COc1cccc(-c2ccc(=O)n(Cc3nc(-c4ccc(OC)cc4OC)no3)n2)c1	i
COc1ccc(NC(=O)CN2C(=O)C3(SCC(=O)N3c3ccc(F)c(F)c3)c3ccccc32)cc1 (stereo not given)	i
CCOc1ccc(CC(=O)Nc2c3c(nn2CC(=O)NCc2ccco2)CSC3)cc1	i
COc1cccc(NC(=O)CSc2nc3sc(C)cc3c(=O)n2C)c1	i
COc1ccc(C2(CNS(=O)(=O)c3c(C)nn(C)c3C)CCCC2)cc1	i
COc1ccc(Cl)cc1NC(=O)CN1CCN(S(=O)(=O)c2ccc(C)c(C)c2)CC1	i
CCc1cc(CC)n(-c2nc3c(c(=O)n(CCN4CCOCC4)c(=O)n3C)n2C)n1	i
CC(C)(C)c1ccc(S(=O)(=O)NCc2ccccn2)cc1	i
CCOc1ccc(-c2noc(-c3nnn(-c4ccc(C(C)C)cc4)c3N)n2)cc1	i
COc1ncccc1C(=O)NCCCn1ncccc1=O	i
Cc1ccc2nc(C3CN(C(=O)Nc4cccc(Cl)c4)C3)[nH]c2c1	i
CC1Oc2ccccc2C(=O)N(CC(=O)c2ccc([N+](=O)[O-])cc2)C1=O (stereo not given)	i
COc1ccc(OCc2noc(CNC(=O)CCC(=O)c3ccccc3)n2)cc1	i
COc1ccc(OCC(=O)NNC(=O)c2cccn(Cc3ccc(F)cc3)c2=O)cc1	i
COc1cc(O)ccc1-c1coc2c(CC=C(C)C)c3c(c(O)c2c1=O)C=CC(C)(C)O3	i
CCS(=O)(=O)c1ccc2c(c1)N(Cc1nc(-c3ccc(OC(C)C)cc3)no1)C(=O)CO2	i
O=c1ccc(-c2ccc3c(c2)OCO3)nn1CCc1nc(-c2ccc(Br)cc2)no1	i
N#Cc1cccc(C(=O)NCC2CCN(C(=O)c3ccoc3)CC2)c1	i
O=C(NCC(O)c1ccc2c(c1)CCO2)C12CC3CC(CC(C3)C1)C2 (stereo not given)	i
Cc1ccc(-c2nc(Cn3c(=O)n(CC4CCCO4)c(=O)c4ccccc43)c(C)o2)cc1 (stereo not given)	i

2 entries picked at random from the list so far, as already listed:
Molecule	GIRK2 activ
Cc1ccc2nc(C3CN(C(=O)Nc4cccc(Cl)c4)C3)[nH]c2c1	i
Cc1ccc(-c2nc(Cn3c(=O)n(CC4CCCO4)c(=O)c4ccccc43)c(C)o2)cc1 (stereo not given)	i

(more compounds)
Molecule	GIRK2 activ
COc1cccc(-c2nc(SCC(=O)NCc3ccco3)c(-c3ccccc3)[nH]2)c1	i
COCCn1c(SCc2nc(-c3ccc(C)cc3)oc2C)nc2ccccc2c1=O	i
CCOc1c(S(=O)(=O)NCc2ccccn2)ccc(Cl)c1Cl	i
COc1ccc(Br)cc1S(=O)(=O)N1CCN(S(=O)(=O)c2cc(Br)ccc2OC)C(C)C1 (stereo not given)	i
COc1ccc(Br)c(C(=O)Nc2cnoc2)c1	i
O=C(O)c1cccnc1	i
Cc1ccc(NS(=O)(=O)c2n[nH]c(C)c2C(=O)Nc2ccc(F)c(F)c2)cc1	i
